Screening results as filed in PubChem BioAssay.
Anthrax LT inh: inhibitors of anthrax lethal toxin internalization; AID 912; Potency, µM (highest dose often 40 µM), for the others: at the top dose activity change, negative = inhibition, most hits filed as inhibitors; Cells, anthrax lethal toxin internalization, FRET ratio (460/530); 0.67% of 70,000 active; active = well fitted falling ratio curve with the 530 nm signal flat; inconclusive = other ratio curves, or a change in one channel alone; inactive = flat curves in the ratio and both channels; the % refers to the ratio; note: % is set by controls: 0 for no effect and ±100 for the full control effect; nearly all actives have a fitted effect of over 50% in size; tested in ME-180 cells; beta-lactamase reporter
SmPrx2 inh: blocks S. mansoni peroxiredoxin 2 enzymatic activity. AID 448. 0.07% of 65,000 active. S. mansoni Prx2 activity coupled to TGR/GSH (TGR is thioredoxin glutathione reductase), NADPH fluorescence loss, qHTS; some inactives read as strong as hits. Potency, µM; active means full or partial inhibition curve with a strong effect at the top dose; inconclusive means weaker partial or single-point curve; inactive means no accepted curve; note: series up to 57 µM; many of its hits are not listed in these tables
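Prx2 activity was followed as the loss of NADPH fluorescence (ex 365/em 450 nm), read every 30 sec for 8 min after H2O2 start. The enzyme mix (50 nM Prx2, 25 nM TGR, GSH, NADPH; pH 7.4 phosphate buffer) was incubated with compound for 15 min at room temperature first.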
The depositor's hits bear a star; ? = inconclusive; . = not tested or not shown; & = joins results of further samples; [ ] = remark or other dose. Potency is the fitted concentration of half-maximal effect. A portion of the library; rates above refer to the full screens.

SMILES | Anthrax LT inh | SmPrx2 inh
CC[C@H](NC(C)C)[C@H](O)c1ccc(O)c2[nH]c(=O)ccc12 | -2% | >57
CCCCNc1ccc(C(=O)OCCN(C)C)cc1 | -10%[3.58 µM] | >57&>57
CCN(CC)CCOC(=O)c1ccc(N)cc1 | 4%[3.58 µM] | >57&>57
O=C(c1ccccc1)c1ccc2n1CC[C@H]2C(=O)O | 2%[3.58 µM] | >57&>57
C1CCC(C(C[C@@H]2CCCCN2)C2CCCCC2)CC1 | 7%[3.58 µM] | >57
CN[C@H]1[C@@H](O)[C@@H](NC)[C@@H]2O[C@@]3(O)C(=O)C[C@@H](C)O[C@H]3O[C@H]2[C@H]1O | 0%[3.58 µM] | >57
COc1cc2ncnc(Nc3cccc(Cl)c3)c2cc1OC | ? | >57&>57
N[C@@H](Cc1c[nH]c2ccc(O)cc12)C(=O)O | 2%&3% | >57
N#Cc1ccc(C(c2ccc(C#N)cc2)n2cncn2)cc1 | -4%[3.58 µM] | >57
Oc1ccc(/C=C\c2cc(O)cc(O)c2)cc1 | ? | >57&>57&>57&>57
OC[C@@H](O)CN1CCN(c2ccccc2)CC1 | -8%[3.58 µM] | >57
CN=C(NC#N)Nc1ccc(C2=NNC(=O)C[C@@H]2C)cc1 | -5%&6% | >57&>57
NOCC(=O)O | 11% | >57
CCCCNc1ccc(C(=O)OCCOCCOCCOCCOCCOCCOCCOCCOCCOC)cc1 | -2%[3.58 µM] | >57
C[C@H]1[C@H](C)CC[C@@]2(C(=O)O)CC[C@]3(C)C(=CC[C@H]4[C@@]5(C)C[C@@H](O)[C@H](O)[C@@](C)(CO)[C@@H]5CC[C@@]43C)[C@@H]12 | -6% | >57
CN1CCO[C@H](c2ccccc2)c2ccccc2C1 | 3%[3.58 µM] | >57
C[N+]1(C)CCC(=C(c2ccccc2)c2ccccc2)CC1 | ? | >57
C1COC(NC(C2CC2)C2CC2)=N1 | ? | >57&>57&>57
Cc1ccc(N(CC2=NCCN2)c2cccc(O)c2)cc1 | -10% | >57&>57&>57
CNCCCN1c2ccccc2CCc2ccccc21 | -14% | >57&>57&>57
Oc1cc2c(cc1O)[C@H]1c3ccc(O)c(O)c3OC[C@@]1(O)C2 | ? | .
Cc1ccc(=O)n(-c2ccccc2)c1 | ? | >57&>57
O=c1oc2c(O)c(O)cc3c(=O)oc4c(O)c(O)cc1c4c23 | ? | >57
COc1cc(N)c(Cl)cc1C(=O)N[C@H]1CCN(CCCOc2ccc(F)cc2)C[C@@H]1OC | ? | >57
CC(=O)O[C@]1(C(C)=O)CC[C@@H]2[C@@H]3C=C(Cl)C4=CC(=O)[C@H]5C[C@@H]5[C@]4(C)[C@H]3CC[C@]21C | ? | >26&>57
CC(=O)CCCCn1c(=O)c2c(ncn2C)n(C)c1=O | 3% | >57&>57&>57
COc1nccc(-c2c(-c3ccc(F)cc3)ncn2C2CCC(O)CC2)n1 (stereo not given) | -7% | >57
O=C(O)c1cccnc1Nc1cccc(C(F)(F)F)c1 | ? | >57&>57
CC(=O)OCC(=O)[C@@]1(O)CC[C@@H]2[C@H]3CCC4=CC(=O)C=C[C@]4(C)[C@]3(F)[C@@H](O)C[C@@]21C | ? | >57
CCn1cc(C(=O)O)c(=O)c2cnc(N3CCNCC3)nc21 | 11%[3.58 µM] | >57

13 compounds already listed, arranged by number of heavy atoms, highest first:
SMILES | Anthrax LT inh | SmPrx2 inh
CCCCNc1ccc(C(=O)OCCOCCOCCOCCOCCOCCOCCOCCOCCOC)cc1 | -2%[3.58 µM] | >57
C[C@H]1[C@H](C)CC[C@@]2(C(=O)O)CC[C@]3(C)C(=CC[C@H]4[C@@]5(C)C[C@@H](O)[C@H](O)[C@@](C)(CO)[C@@H]5CC[C@@]43C)[C@@H]12 | -6% | >57
COc1cc(N)c(Cl)cc1C(=O)N[C@H]1CCN(CCCOc2ccc(F)cc2)C[C@@H]1OC | ? | >57
CC(=O)OCC(=O)[C@@]1(O)CC[C@@H]2[C@H]3CCC4=CC(=O)C=C[C@]4(C)[C@]3(F)[C@@H](O)C[C@@]21C | ? | >57
CC(=O)O[C@]1(C(C)=O)CC[C@@H]2[C@@H]3C=C(Cl)C4=CC(=O)[C@H]5C[C@@H]5[C@]4(C)[C@H]3CC[C@]21C | ? | >26&>57
COc1nccc(-c2c(-c3ccc(F)cc3)ncn2C2CCC(O)CC2)n1 (stereo not given) | -7% | >57
O=c1oc2c(O)c(O)cc3c(=O)oc4c(O)c(O)cc1c4c23 | ? | >57
C[N+]1(C)CCC(=C(c2ccccc2)c2ccccc2)CC1 | ? | >57
O=C(O)c1cccnc1Nc1cccc(C(F)(F)F)c1 | ? | >57&>57
CN1CCO[C@H](c2ccccc2)c2ccccc2C1 | 3%[3.58 µM] | >57
Cc1ccc(=O)n(-c2ccccc2)c1 | ? | >57&>57
C1COC(NC(C2CC2)C2CC2)=N1 | ? | >57&>57&>57
NOCC(=O)O | 11% | >57
